TRPV1 potentiator = potentiators of human vanilloid receptor 1 (TRPV1) | TRPV1-expressing cells, Fluo-8 calcium influx, capsaicin EC20 potentiation; host cell line not named in the record; control for the full effect not named in the record | 320,000 compounds, 0.02% hits | potentiation, % at 8.33 µM; active means potentiation above 80%; inconclusive means 30% to 80%; inactive means below 30%; further: 0% is about no effect
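TRPV1-expressing cells were cultured overnight at 35.5C and loaded with Fluo-8 calcium dye for 40 to 90 min at room temperature. After a 10 s baseline, compound was added and calcium influx was read kinetically for 3 min (ex 480/em 520 nm).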
gsp agonist = activates gsp, the McCune-Albright syndrome mutation; 340,000 compounds, 0.13% hits; gsp mutant cells, cAMP HTRF, 30 min; control for the full effect not named in the record; Potency, µM (highest dose often 76.9 µM), without a hit: top-dose activation (cAMP increase), actives largely listed as activators; AID 624287; active = well fitted activation curve with a large enough effect; inconclusive = small, poorly fitted or top-dose-only effect, or another doubt; inactive = no such curve, though single readings can be large or run the other way; cell line not stated here;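 further: phosphodiesterase inhibitor Ro 20-1724 added with compounds to block cAMP breakdown; potency means the concentration at half of the fitted maximal effect; nearly all actives have a fitted effect of over 60% in size; about a fifth of the inactives were tested at one dose only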
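Cells in DMEM/10% FBS with G418 were pretreated with compounds in DMSO plus […] (300 uM stock) for 30 min at 37C. cAMP was measured by HTRF (cAMP-d2 plus anti-cAMP antibody-K) after 30 min at room temperature.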
D2 PAM = potentiates the human D2 dopamine receptor allosterically. P14416. DiscoveRx D2 beta-arrestin cells, luminescence, 90 min; 100% = 57 uM dopamine signal. potentiation, % (no concentration beside the values). 360,000 compounds, 0.23% hits. AID 624464; active = potentiation of 50% or more; inconclusive = 30% to 50%; inactive = 30% or less;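 further: compound concentration not given in the record; tested on top of an EC20 dose of dopamine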
Target sequence (P14416 whole entry, looked up): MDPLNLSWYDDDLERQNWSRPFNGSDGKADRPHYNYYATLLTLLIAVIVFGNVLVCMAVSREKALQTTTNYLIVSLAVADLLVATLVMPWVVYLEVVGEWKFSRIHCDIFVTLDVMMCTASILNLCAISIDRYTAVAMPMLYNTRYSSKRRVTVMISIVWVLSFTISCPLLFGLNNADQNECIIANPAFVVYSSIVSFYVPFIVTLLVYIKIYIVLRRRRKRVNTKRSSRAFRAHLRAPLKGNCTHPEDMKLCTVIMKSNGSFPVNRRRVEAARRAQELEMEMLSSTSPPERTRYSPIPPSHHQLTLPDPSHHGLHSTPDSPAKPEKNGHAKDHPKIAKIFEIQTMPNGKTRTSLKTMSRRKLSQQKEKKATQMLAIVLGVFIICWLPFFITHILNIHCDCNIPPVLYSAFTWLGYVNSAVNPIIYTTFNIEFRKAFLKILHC
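PathHunter beta-arrestin assay in DiscoveRx D2 cells. Compounds were added with an EC20 of dopamine (50 nM final) for 90 min at 37 deg C. Luminescence was read 1 h after detection reagent, with 57 uM dopamine as the EC100 control.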
Menin-MLL FL inh = displaces fluorescein MLL peptide from human menin | Fluorescence polarization, fluorescein-MLL peptide displacement from menin | FP activity change, % at 61.4 µM | 290,000 tested, under 10 active; inconclusive = falling polarisation curve, or a change in total fluorescence; inactive = total fluorescence flat and polarisation flat or rising; no compound was filed as active; the % refers to the polarisation; negative = inhibition;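 further: % of control where 0% means no effect; inhibitors lower the polarisation; unlabelled MLL peptide was the positive control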
Sfp inh = blocks B. subtilis Sfp PPTase activity; Q9F4F7; 310,000 compounds, 3.5% hits; Biochemical Sfp PPTase activity, qHTS; Potency, µM, without a hit: max response, negative = inhibition, most hits filed as inhibitors; active means well fitted inhibition curve with a large enough effect; inconclusive means small, poorly fitted or top-dose-only effect, or another doubt; inactive means no such curve, though single readings can be large or run the other way;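 further: the enzyme is Sfp with the accession as filed and its product quenches rhodamine fluorescence; potency means the concentration at half of the fitted maximal effect; 0% = enzyme reaction without inhibitor and -100% = no enzyme wells; top concentration of the series not given in the record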
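Fluorescence-quenching assay with 15 nM Sfp, 5 uM rhodamine-CoA and 12.5 uM BHQ-2-labelled ybbR peptide in pH 7.6 Hepes/MgCl2 buffer. Enzyme was pre-incubated with compound for 15 min at room temperature. Rate was taken from the 30-min fluorescence change (525/598 nm).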
gsp antag = antagonists of gsp mutant (McCune-Albright syndrome) | 340,000 compounds, 0.4% hits | AID 624288 | Potency, µM (top dose mostly 76.9 µM), without a hit: at the top dose activity change, negative = inhibition, usual class: inhibitors | gsp-mutant cells, cAMP HTRF, 30 min; control for the full effect not named in the record; active = falling curve of any shape with a large fitted effect; inconclusive = falling curve, mostly with a smaller effect; inactive = flat or rising curve; cell line not stated here;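 further: intracellular cAMP measured with PDE inhibitor Ro 20-1724 present during compound exposure; potency means the concentration at half of the fitted maximal effect; on the % scale 0 is the no-effect control and ±100 the full control effect; nearly all actives have a fitted effect of over 65% in size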
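HTRF cAMP measurement after 30 min RT detection following 30 min, 37C compound treatment alongside […] (added as 300 uM solution) in G418-selected cells seeded at 2000/well and grown 16–24 h.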
ClpP mod = qHTS Assay for Activators of ClpP. ATP-dependent Clp protease proteolytic subunit (Bacillus subtilis (strain 168)), P80244. purified B. subtilis ClpP, FRET peptide cleavage, 20 min. Potency, µM (doses to about 57.5 µM), without a hit: top-dose activity change, negative = active. 340,000 compounds, 1.9% hits; active = well fitted falling curve with a large enough effect; inconclusive = small, poorly fitted or top-dose-only effect; inactive = no such curve, though single readings can be large or run the other way; further: potency means the concentration at half of the fitted maximal effect; the source files actives as falling curves though it sought activators and does not explain the sign; nearly all actives have a fitted effect of over 65% in size; many hits overshoot -100%
Target sequence (P80244 whole entry, looked up): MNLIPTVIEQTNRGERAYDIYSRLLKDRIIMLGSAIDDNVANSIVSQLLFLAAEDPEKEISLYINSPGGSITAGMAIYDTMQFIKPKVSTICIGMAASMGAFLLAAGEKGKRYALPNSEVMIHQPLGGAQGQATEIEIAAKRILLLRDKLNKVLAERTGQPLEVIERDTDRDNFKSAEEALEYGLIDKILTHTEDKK
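FRET quenching reversal measured ClpP activation: 10 microg/mL B. subtilis ClpP at pH 8 with the FRET-FV decapeptide, read at 430 nm after 320 nm excitation. The 20-min minus 0-min signal was scaled between DMSO/no-enzyme wells and ADEP (5.8 microM final).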
The depositor's hits bear a star; ? = inconclusive; / = not tested or not shown; [ ] = another dose, or the depositor's remark.

compound,TRPV1 potentiator,gsp agonist,D2 PAM,Menin-MLL FL inh,Sfp inh,gsp antag,ClpP mod
CCc1nnc(NC(=O)CN2C(=O)NC3(CCCC3)C2=O)s1,-3.2,8.4%,-6.6,/,/,11.6%,1.4%
c1ccc(C[C@H]2CNCCN2CC2(c3ccccc3)CC2)cc1,-9.5,-0.7%,-25.1,/,/,-6.5%,-2.8%
CC[C@]12c3[nH]c4cc(CCC(=O)N(C)C)ccc4c3CCN1C(=O)[C@@H](CC(=O)NCC13CC4CC(CC(C4)C1)C3)C[C@@H]2C(=O)N1CCN(C(=O)C2CC2)CC1,/,/,-4.5,/,/,-13.3%,-6.4%
COc1ccc(C2C3=C(CC(C)(C)CC3=O)Nc3c2c(=O)[nH]c(=O)n3Cc2ccccc2)cc1 (stereo not given),4.7,13.9%,-5.2,?,-17.1%,-3.3%,-12.5%
Cc1occc1C(=O)NNC(=S)Nc1ccccc1C(F)(F)F,-8.6,-40.0%,-17.2,3.9,28.2%,-3.9%,1.6%
N#C/C(=C\c1ccc2c(c1)OCO2)C(=O)NCc1ccco1,-4.5,?,-8.0,-0.1,4.6%,-2.6%,3.4%
O=C(NCc1ccccc1)C1CCN(S(=O)(=O)N2CCOCC2)CC1,-3.2,16.0%,-7.6,-0.3,2.6%,6.2%,0.6%
COC(=O)C(/C=N/OCc1ccc([N+](=O)[O-])cc1)NC(=O)c1ccccc1 (stereo not given),2.3,1.1%,-6.8,-0.6,26.3%,4.5%,-0.5%
CC(C)CNS(=O)(=O)c1ccc(CCC(=O)N2CCN(c3ccc(F)cc3)CC2)cc1,-4.0,6.8%,-12.5,-0.1,10.2%,-0.5%,0.8%
CC1CCCCN1CCCNC(=O)c1ccc(N2CCCC2=O)cc1 (stereo not given),4.5,?,-2.7,-1.2,12.8%,7.7%,0.9%
CN(Cc1ccccc1F)C(=O)c1ccc(NS(=O)(=O)c2ccc3[nH]c(=O)[nH]c3c2)cc1,-1.9,1.6%,10.6,/,/,6.1%,0.5%
CCOc1ccccc1N1C(=O)CC(Sc2n[nH]c(-c3ccccc3)n2)C1=O (stereo not given),-1.7,-3.3%[15.4 µM],-8.1,1.0,35.5µM*,?,/
COC(=O)c1nc(-c2ccccc2)nc(-c2ccccc2)c1C(=O)OC,/,32.6%,8.9,/,/,?,/
O=C(NC(=S)Nc1nc(-c2ccccc2)cs1)c1ccco1,-10.1,-59.3%[inhibitor],-2.4,3.4,50.1µM*,-7.0%,-0.9%
CC1(C)CC(=O)C(Sc2nnc(-c3ccc(O)cc3)n2CC2CCCO2)C(=O)C1 (stereo not given),/,-6.1%,-9.3,-0.1,44.7µM*,1.4%,-0.2%
COC(=O)c1ccccc1-c1ccc(C=O)o1,4.0,15.8%,-7.7,0.9,13.6%,-5.4%,/
Cc1cc(C)n(-c2cc(N3CCOCC3)ncn2)n1,5.0,-10.8%,-3.5,5.3,3.9%,3.8%,0.2%
O=C1NCCCN1Cc1ccc(F)cc1Cl,-18.4,7.7%,-5.8,-4.0,-3.6%,3.4%,-0.6%
COc1ccc(-c2cnnc(N/N=C/c3ccc(-c4ccc([N+](=O)[O-])cc4)o3)n2)cc1,9.5,2.0%,-12.3,5.6,?,4.9%,0.7%
CC(=O)Nc1ccc(NC(=O)C(=O)c2cn(CC(=O)N3CCCCC3)c3ccccc23)cc1,8.5,3.1%[15.4 µM],-6.2,?,-16.4%,-3.3%,0.4%
CSCCC(NC(=O)c1ccco1)C(=O)N1CCN(c2ccccc2O)CC1 (stereo not given),3.1,-36.5%[inhibitor],0.6,/,/,1.3%,0.9%
Cc1ccc(C)c(NC(=O)C(OC(=O)c2ccc(NC(=O)CC#N)cc2)c2ccccc2)c1 (stereo not given),-3.4,-52.6%,-16.1,/,/,-6.8%,0.2%
Cc1ccccc1C(=O)N1CCN(S(=O)(=O)c2cccs2)CC1,-3.6,-64.7%[inhibitor],9.5,/,10.1%,10.7%,-1.2%
O=C(c1ccc(S(=O)(=O)NCc2ccco2)cc1)N1CCN(c2ccc(F)cc2)CC1,-22.1,5.4%,-3.6,/,/,5.4%,-1.3%
COC(=O)[C@@H](NC(=O)N1CCN(c2cccc(C(F)(F)F)c2)CC1)C(C)C,-30.1,-41.8%[inhibitor],-13.7,-1.7,17.1%,27.3%,-1.3%
CCN(c1ccc(OC)cc1)S(=O)(=O)c1cc(-c2cc(C)no2)ccc1OC,4.8,-31.8%[inhibitor],-11.2,/,11.4%,-19.6%,1.0%
CCOc1ncccc1C(=O)OCC(=O)c1ccccc1Br,5.7,14.9%,-0.2,3.4,0.3%,-10.2%,0.7%
O=C(/C=C(\O)c1ccccc1)C(=O)NNC(=O)c1ccccc1,9.1,-4.2%,-4.8,?,18.8%,-9.7%,-0.9%
Cc1ccc(OCCOC(=O)C2CCN(S(=O)(=O)c3ccc(C)c(C)c3)CC2)cc1,6.2,-0.3%,-24.6,/,/,-1.6%,-17.1%
Cc1ccc(C)c(NC(=O)CSc2nc3nc(-c4cccs4)cc(C(F)(F)F)c3c(=O)[nH]2)c1,-6.4,20µM*,-14.3,0.3,?,-9.7%,3.7%
CCN(C(=O)COC(=O)c1cccnc1SC)C1CCS(=O)(=O)C1 (stereo not given),2.4,3.7%,-4.7,2.0,7.3%,3.3%,0.7%
CCCN(CC(=O)Nc1ccccc1OC)C(C)C(=O)NC(C)CCc1ccccc1 (stereo not given),29.6,-8.6%[15.4 µM],-0.3,-0.5,-10.6%,-4.6%,1.0%
CCOc1cc(C2NC(=O)NC(C)=C2C(=O)OCc2ccccc2)ccc1O (stereo not given),1.7,-81.9%[inhibitor],-13.0,5.3,-1.2%,-4.1%,2.0%
CC1(C)Cc2c(sc3nc[nH]c(=O)c23)CO1,6.5,12.4%[15.4 µM],3.4,2.2,13.9%,10.3%,/
Cc1cccc(C(=O)OCC(=O)NCc2ccc(Cl)cc2)c1,/,0.4%,-8.7,/,/,/,-2.1%
CCOC(=O)CSc1nnc(CNC(=O)c2ccc(OC)cc2)n1Cc1ccccc1,4.5,-13.5%,5.0,3.0,9.6%,-5.5%,-3.6%
Cc1ccc2nc(C)cc(SCC(=O)N/N=C/c3ccco3)c2c1,-3.2,28.9%,-7.3,/,-2.4%,3.8%,-4.5%
CCn1c2ccccc2c2cc(/C=N/n3cnnc3)ccc21,24.1,24.1%,12.5,1.3,-8.3%,-10.3%,25.1µM*
CCCC(=O)NCCCc1nc2ccccc2[nH]1,3.6,-9.9%,-9.1,0.1,16.3%,1.3%,-0.7%
Cc1onc(-c2ccccc2Cl)c1C(=O)N1CCN(C=O)CC1,4.9,4.8%,-2.7,/,15.6%,6.3%,1.0%
C/C(=N/NC(=O)Cc1cc(=O)[nH][nH]1)c1ccc([N+](=O)[O-])cc1,-1.1,5.9%,-1.7,0.1,-4.1%,14.0%,0.4%
CCCc1c(C)nc(N2CCN(c3cccc(OC)c3)CC2)[nH]c1=O,27.4,-23.4%,0.7,-1.9,2.1%,-12.5%,/
CSc1ncccc1C(=O)Nc1cc(Cl)ccc1N1CCOCC1,/,-18.4%,-7.8,/,/,-1.8%,-1.8%
CC(C)Sc1nnc(NC(=O)C2CC2)s1,-17.9,?,-3.3,-0.9,-9.2%,9.9%,-2.3%
Cc1ccc(CSc2nnc(C(F)(F)F)n2Cc2ccc(F)cc2)cc1,-6.8,39.3%,-9.2,2.1,6.1%,-7.5%,-0.7%
Nc1ncn(CC(=O)c2ccccc2)n1,-2.1,-5.5%,-9.5,-8.1,6.9%,3.0%,-1.6%
COc1ccc(CN(C)C(=O)Cc2ccsc2)c(OC)c1OC,3.1,-18.9%,-0.6,/,4.8%,-1.7%,/
N#Cc1cc2ccc(N3CCOCC3)cc2cc1C#N,8.5,?,68.5*,-1.2,18.6%,-11.2%,-3.5%
C=CCS(=O)(=O)c1nc2ccccc2s1,?,16.4%,-27.4,-0.1,-3.0%,3.0%,-0.8%
CCCCCOc1ccc(C(=O)CCC(=O)NNC(=O)c2ccncc2)cc1,7.5,4.5%,7.7,/,/,4.7%,0.9%
COc1ccc(CCN(C)C2CCCN(S(=O)(=O)C(C)C)C2)cc1OC (stereo not given),10.8,26.8%,-4.2,-5.4,-2.5%,-5.2%,0.3%
Cc1ccc(NC(=O)CN(C)C(=O)c2cn(Cc3ccccc3)nc2-c2cccnc2)cc1,9.3,10.8%[15.4 µM],-15.5,/,/,-6.0%,-3.1%
NC(=O)C1CC(=O)N(c2ccc(OCc3ccc(F)cc3)cc2)C1 (stereo not given),7.2,-17.4%,-4.3,2.5,3.0%,12.0%,/
O=C(COC(=O)Cn1cnc2ccccc2c1=O)NNC(=O)c1ccc(Br)cc1,/,9.5%[15.4 µM],-23.4,/,/,-9.0%,-7.4%
Cc1cc(=O)[nH]c(/N=C(\N)Nc2ccc(Oc3ccccc3)cc2)n1,?,-8.8%[15.4 µM],-0.8,1.2,14.3%,-21.3%,/
O=C(COC(=O)c1cnccn1)Nc1ccc(Cl)cc1C(F)(F)F,7.2,-1.0%[15.4 µM],18.3,/,/,3.8%,/

More results follow:
compound,TRPV1 potentiator,gsp agonist,D2 PAM,Menin-MLL FL inh,Sfp inh,gsp antag,ClpP mod
CC(C)(C)Nc1nc(SCC(=O)Nc2ccccc2Cl)nc(N2CCOCC2)n1,-5.1,-2.9%[15.4 µM],-7.1,/,-5.6%,-2.0%,-5.8%
CCCCN(C(=O)c1ccc(NC2CC2)c([N+](=O)[O-])c1)c1c(N)n(CCCC)c(=O)[nH]c1=O,-1.6,2.7%,-16.1,/,/,-6.5%,-1.7%
COc1cccc(CNC(=O)Cn2nc(C)c([N+](=O)[O-])c2C)c1,-39.8,-20.2%,-20.5,2.6,16.8%,4.1%,-0.7%
CC(C)(O)C#Cc1ccc(CN2CCN(CCc3ccccc3)C(CCO)C2)s1 (stereo not given),19.5,-3.5%,-5.1,-4.1,-5.7%,4.7%,0.8%
